Screening results deposited in PubChem by Broad Institute.
Beta cell apopt = inhibitors of cytokine-induced beta cell apoptosis, primary screen, luminescence; AID 435005, 2010; protection from apoptosis, % (test concentration not listed); INS-1E cytokine-induced death, ATP luminescence, 48 h; percent of positive-control rescue, neutral wells zero; actives 0.8% (n = 300,000);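 active means all replicates at 75% or more, or half of them and the mean; inconclusive means half reach 75% but not the mean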;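 further: 0% = cytokine-treated negative control wells and 100% = positive control rescue; higher means more ATP so stronger rescue from cytokine killing; wells of about 40 µL received 100 nL stock; the first replicate is given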
T cruzi repl = inhibitors of intracellular T. cruzi growth, primary screen, luminescence, NIH3T3 host cells; T. cruzi beta-gal in NIH3T3, 90 h; inhibition, % (concentration not given with the values); actives 1.4% (n = 300,000); AID 1885, 2009;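 active means mean inhibition across valid replicates above about 55%, limit read from the data; inconclusive means mean below that limit but half or more replicates reach it; inactive means mean below it, under half of replicates reach it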;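 further: signal also drops with host cell toxicity which is not excluded here; 0% = plate median of DMSO wells and 100% = zero luminescence signal; higher percent means less beta-gal luminescence so fewer parasites; stock transfer was 50 nL into about 50 µL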
Calb FLC = C. albicans growth inhibition with fluconazole, primary screen, CaCi-2 strain, Alamar Blue fluorescence; C. albicans CaCi-2 (fluconazole-resistant clinical isolate) + fluconazole, 48 h; growth inhibition, % (test concentration not listed); actives 0.57% (n = 300,000); AID 1979, 2009;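 active means most replicates above 75%; inconclusive means exactly half above 75%; inactive means most below 75%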;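 further: all wells also contain fluconazole at 8 µg/ml as a sub-toxic cotreatment; 0% = median of DMSO wells and 100% = median of geldanamycin control wells; wells of about 8 µL received 7.5 nL stock; the first replicate is given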
MLL AF4-AF9 inh = inhibitors of AF4 peptide binding to AF9, primary screen, biochemical, AlphaScreen, biotin-AF4 peptide, FLAG-AF9, single point; Protein AF-9 (Homo sapiens), P42568; inhibition, % at 10 µM; actives 0.47% (n = 350,000);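 active means every replicate reaching a set inhibition limit, whatever the replicate mean, cut at about 25% in these data; inconclusive means mean inhibition reaches that limit but some replicates miss it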;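 further: 0% = plate neutral control median and 100% = total signal loss; the record names both 10 and 1 µM as test concentration; the first replicate is given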
Target sequence (P42568 whole entry, looked up): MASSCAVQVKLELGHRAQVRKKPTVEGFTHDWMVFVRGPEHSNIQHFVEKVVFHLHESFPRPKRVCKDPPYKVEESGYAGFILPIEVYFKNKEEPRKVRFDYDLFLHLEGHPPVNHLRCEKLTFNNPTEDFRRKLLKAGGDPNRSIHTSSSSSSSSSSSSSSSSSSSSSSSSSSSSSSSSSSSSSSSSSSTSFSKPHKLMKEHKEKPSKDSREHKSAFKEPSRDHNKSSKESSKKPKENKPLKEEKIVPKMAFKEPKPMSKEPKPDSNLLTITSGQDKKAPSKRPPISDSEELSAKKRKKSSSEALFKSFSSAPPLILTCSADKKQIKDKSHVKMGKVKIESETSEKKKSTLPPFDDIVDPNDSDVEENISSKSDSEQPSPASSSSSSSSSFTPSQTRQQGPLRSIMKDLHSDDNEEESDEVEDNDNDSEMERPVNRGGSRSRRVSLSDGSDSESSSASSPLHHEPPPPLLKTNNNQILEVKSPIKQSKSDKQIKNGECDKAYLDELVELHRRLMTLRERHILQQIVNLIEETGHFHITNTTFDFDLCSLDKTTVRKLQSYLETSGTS
ALR H2O2 inh = inhibitors of human ALR sulfhydryl oxidase, primary screen, biochemical, H2O2 detection, HRP-luminol luminescence, single point | AID 485317, 2010 | actives 3.8% (n = 290,000) | purified ALR, DTT oxidation | FAD-linked sulfhydryl oxidase ALR (Homo sapiens), P55789 | inhibition, % (test concentration not listed);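 active means mean and each replicate at 75% or more; inconclusive means only one of the two met; inactive means neither met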;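 further: stock transfer was 7.5 nL into about 7.5 µL; 0% = neutral wells and 100% = wells with inactivated enzyme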
Target sequence (P55789 whole entry, looked up): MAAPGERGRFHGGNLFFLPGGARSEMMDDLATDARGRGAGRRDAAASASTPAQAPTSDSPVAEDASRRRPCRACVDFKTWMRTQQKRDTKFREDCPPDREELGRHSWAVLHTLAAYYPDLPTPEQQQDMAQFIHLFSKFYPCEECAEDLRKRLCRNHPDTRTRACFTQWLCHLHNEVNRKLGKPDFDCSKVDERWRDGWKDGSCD
FGF22 binding = binders of human FGF22 protein, primary screen, FGF22 synaptogenesis inhibitor project, biophysical, thermal shift, single point; Fibroblast growth factor 22 (Homo sapiens), Q9HCT0; recombinant FGF22 thermal shift, SYPRO orange fluorescence; percent of sucrose octasulfate shift, DMSO zero; calls only at 9.99 µM; actives 1.5% (n = 340,000);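 active means melting point raised past a set limit in the mean and every replicate; inconclusive means no clear call; three in four hits are not shown here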
Target sequence (Q9HCT0 whole entry, looked up): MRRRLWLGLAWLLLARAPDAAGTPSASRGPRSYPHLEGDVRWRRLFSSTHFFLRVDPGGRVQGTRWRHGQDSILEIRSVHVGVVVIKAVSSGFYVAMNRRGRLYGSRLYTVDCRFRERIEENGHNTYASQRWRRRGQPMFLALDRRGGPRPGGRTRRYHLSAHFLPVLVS
RanGTP-Impb inh = inhibitors of RanGTP-importin-beta interaction, primary screen, biochemical, FRET, CFP-Ran, YFP-importin-beta, homogeneous; Ran GTPase (GTP-bound) - importin-beta complex; cell-free CFP-Ran/YFP-importin-beta FRET ratio; inhibition, % (concentration not given with the values); actives 1.1% (n = 300,000); AID 2216, 2009;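 active means most replicates above 15%; inconclusive means exactly half above 15%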;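 further: 0% = DMSO wells and 100% = Ran loaded with GDP instead of GTP; wells of about 40 µL received 100 nL stock; the first replicate is given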
Ecoli rRNA inh = reduced GFP signal of wild-type E. coli, primary screen, bacterial rRNA inhibitor project, GFP/RFP fluorescence, OD600, single point. E. coli WT GFP vs humanized-ribosome RFP mutants, 24 h; active compounds read low; DMSO median 0, no signal -100. GFP signal change (wild-type ribosome), % (concentration not given with the values). actives 1.6% (n = 350,000). AID 720706, 2013;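 active means significant combined selectivity score with lowered wild-type GFP, culture density cut under 30%, mutant RFP and density less affected; inactive means any of these conditions unmet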; further: one replicate is shown; some compounds called inactive have numbers as strong as hits
Ecoli rRNA inh OD600 = also measured in Ecoli rRNA inh; calls as there; OD600 change, %; measured here: OD600 growth;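 optical density of the mix in the first replicate; 0 = DMSO median and -100 = no signal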
Ecoli rRNA inh RFP = second read-out of Ecoli rRNA inh, no call of its own (marks repeat the call); RFP signal change, %; measured here: RFP humanized mutant strains;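 first replicate; 0 = DMSO median and -100 = no signal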
Numbers without * were called inactive; i = inactive; ? = inconclusive; / = not tested or not shown; & = joins results of further samples. Not all compounds are listed (hit frequency here may not be typical).

A first look (two entries):
SMILES	Beta cell apopt	T cruzi repl	Calb FLC	MLL AF4-AF9 inh	ALR H2O2 inh	FGF22 binding	RanGTP-Impb inh	Ecoli rRNA inh	Ecoli rRNA inh OD600	Ecoli rRNA inh RFP
Cc1cccc2cc(C(c3nnnn3Cc3ccc4c(c3)OCO4)N3CCCC3)c(=O)[nH]c12 (stereo not given)	0	9	4	/	5	/	-3.4	/	/	/
O=C(COC(=O)CCC1CCCC1)Nc1nc2c(F)c(F)c(F)cc2s1	-6	-2	-6	-1.7	31	i	-1.6	/	/	/

The list itself (from the top)
SMILES	Beta cell apopt	T cruzi repl	Calb FLC	MLL AF4-AF9 inh	ALR H2O2 inh	FGF22 binding	RanGTP-Impb inh	Ecoli rRNA inh	Ecoli rRNA inh OD600	Ecoli rRNA inh RFP
Cc1cccc2cc(C(c3nnnn3Cc3ccc4c(c3)OCO4)N3CCCC3)c(=O)[nH]c12 (stereo not given)	0	9	4	/	5	/	-3.4	/	/	/
O=C(COC(=O)CCC1CCCC1)Nc1nc2c(F)c(F)c(F)cc2s1	-6	-2	-6	-1.7	31	i	-1.6	/	/	/
CCN1CCN(c2cc(C)c3cc(NC(=O)CCC(=O)Nc4ccc(OC)cc4OC)ccc3n2)CC1	-1	50	3	3.6	-13	i	4.4	-1	5	0.4
CC(=O)COC(=O)c1ccc2noc(-c3ccccc3)c2c1	-3	-2	-5	1.8	-3	i	-2.6	-5	-2	0.1
Cc1sccc1C1C(C#N)=C(N)SC(N)=C1C#N	-2	-11	-6	/	25	/	68*	/	/	/
Cc1onc(-c2ccccc2)c1C(=O)N1CCN(c2ncccc2C(F)(F)F)CC1	-2	6	0	-0.2	0	i	-0.3	1	-5	7.7
CCCn1nc(C(=O)N2CCCc3ccccc32)c2ccccc2c1=O	0	-15	38	-0.4	0	/	0.0	-10	-15	-7.1
COc1ccc(-n2c(=O)c3c4c(sc3n(CC(=O)NCC3CCCO3)c2=O)CCCC4)c(OC)c1 (stereo not given)	-3	6	8	-32	5	i	?	13	3	3.7
O=[N+]([O-])c1cccc(-c2cc3cccc[n+]3cc2-c2cccc([N+](=O)[O-])c2)c1	-3	4	-22	/	-4	/	-4.0	/	/	/
O=C(CSc1nc2ccccc2c(=O)[nH]1)c1cccs1	3	-7	0	/	15	/	6.1	-10	-4	-1.1

Individual results from the results shown.
Under T cruzi repl, Cc1cccc2cc(C(c3nnnn3Cc3ccc4c(c3)OCO4)N3CCCC3)c(=O)[nH]c12 (stereo not given) shows 9
Under ALR H2O2 inh, O=C(CSc1nc2ccccc2c(=O)[nH]1)c1cccs1 shows 15

Whole records, quoted from the list. Order of screens: Beta cell apopt	T cruzi repl	Calb FLC	MLL AF4-AF9 inh	ALR H2O2 inh	FGF22 binding	RanGTP-Impb inh	Ecoli rRNA inh	Ecoli rRNA inh OD600	Ecoli rRNA inh RFP
Shown for Cc1onc(-c2ccccc2)c1C(=O)N1CCN(c2ncccc2C(F)(F)F)CC1 = -2	6	0	-0.2	0	i	-0.3	1	-5	7.7
Shown for O=C(CSc1nc2ccccc2c(=O)[nH]1)c1cccs1 = 3	-7	0	/	15	/	6.1	-10	-4	-1.1
Shown for O=C(COC(=O)CCC1CCCC1)Nc1nc2c(F)c(F)c(F)cc2s1 = -6	-2	-6	-1.7	31	i	-1.6	/	/	/
Shown for COc1ccc(-n2c(=O)c3c4c(sc3n(CC(=O)NCC3CCCO3)c2=O)CCCC4)c(OC)c1 (stereo not given) = -3	6	8	-32	5	i	?	13	3	3.7

Carrying on:
SMILES	Beta cell apopt	T cruzi repl	Calb FLC	MLL AF4-AF9 inh	ALR H2O2 inh	FGF22 binding	RanGTP-Impb inh	Ecoli rRNA inh	Ecoli rRNA inh OD600	Ecoli rRNA inh RFP
CCOc1ccc(NC(=S)NCCCN2CCN(C3CCCCC3)CC2)cc1	-2	1	1	2.8	-1	i	-1.6	3	7	-2.8
COc1ccc(-c2cc(C(F)(F)F)nc(SCCC(=O)N3CCN4CCCC4C3)n2)cc1 (stereo not given)	7	34	-3	/	-2	/	1.7	/	/	/
Cc1cccc(N2C(=O)C(CC(=O)Nc3cccc(F)c3)N(CCc3ccncc3)C2=O)c1 (stereo not given)	1	-1	?	2.1	-14	/	-2.9	3	8	17
NS(=O)(=O)c1cccnc1Nc1cccc(Cl)c1	-3	-4	-8	/	-1	/	2.2	/	/	/
CCN(CC)C(=O)c1[nH]cnc1C(=O)N[C@@H](CC(C)C)C(=O)OC(C)(C)C	-11	3	1	/	4	i	?	5	7	-4.5
O=C(Cc1nnc(NC(=O)Nc2ccc(F)cc2)s1)Nc1ccccc1	-2	-24	1	-1.2	-16	i	?	12	24	3.9
Cc1cccc(-n2nnc(C(=O)NCc3ccco3)c2N)c1	2	1	23	/	-4	/	-6.1	/	/	/
Cc1c(C(=O)/C=C/N(C)C)nnn1-c1ccc(F)c(Cl)c1	-1	18	3	0.3	-1	i	7.6	8	-12	-0.2
COc1ccc(CC(=O)Nc2nc(C(C)(C)C)cs2)cc1	/	22	8	-0.3	19	i	1.9	-42	-67	-0.5
CN1CCN(NC(=O)CN2C(=O)S/C(=C\c3c(Cl)cccc3Cl)C2=O)CC1	-4	4	13	0.1	4	i	-0.8	-21	-19	-2.0
CC(C)C[C@H](NC(=O)CCn1nnc2ccccc2c1=O)C(=O)O	0	-18	-5	?	-5	i	-0.6	7	3	-3.4
O=C(NC(NC(=S)Nc1ccc(Cl)cc1)C(Cl)(Cl)Cl)c1ccco1 (stereo not given)	8	7	-17	/	3	/	3.2	/	/	/
COc1cc(/C=C/C(=O)OCC(=O)N2CCC(Cc3ccccc3)CC2)ccc1O	-10	-9	19	6.3	41	i	-1.0	-32*	-19*	2.6*
CCC(CC)C(=O)N1CCCC(c2nc(-c3cccs3)no2)C1 (stereo not given)	-1	10	-7	/	-2	/	-2.1	/	/	/
O=C(CSc1ncnc2nc[nH]c12)c1ccc(Cl)cc1	-1	11	14	4.5	87*	i	3.2	-9	-5	0.9
CN(C)c1ccc(C(=O)N2CCCC(N3CCN(Cc4ccc5c(c4)OCO5)CC3)C2)cc1 (stereo not given)	0	22	?	3.9	97*	i	0.1	2	10	-1.0
O=C(CN1C(=O)C(=O)N(C2CCCC2)C1=O)Nc1ccccc1OC(F)F	-2	/	/	-2.7	/	i	/	11	8	1.0
O=C(COC(=O)CNC(=O)c1cccc([N+](=O)[O-])c1)Nc1ccccc1OC(F)F	-10	-15	-10	-0.6	0	i	1.3	4	3	3.8
CCOC(=O)N1CCN(C(=O)c2cccn3c(=O)c4c5c(sc4nc23)CCCC5)CC1	0	10	-10	-0.2	8	i	?	8	1	-0.7
COc1cc(/C=C/C(O)=C/C(=O)/C=C/c2ccc(O)cc2)ccc1O	2	/	/	/	1	i	/	-3	8	-2.9
C=CCn1c(-c2ccc(F)cc2)n[nH]c1=S	-5	-4	5	-4.0	-1	/	-3.7	7	7	-4.5
CCN(C(=O)CN1CCN(c2ccccc2O)CC1)c1c(N)n(Cc2ccccc2)c(=O)[nH]c1=O	1	6	11	/	98*	/	1.1	/	/	/
CCO[C@H]1OC(C(=O)NC2CC2)=C[C@@H](c2ccccc2)[C@@H]1CCCO	-1	4	2	-20&-1.5	11	i	4.2	2	18	-1.0
Cc1ccc(Sc2ncccc2C(=O)O)cc1	-5	7	-6	/	/	/	0.2	/	/	/
CCCCCC1CCC(c2n[nH]c(=S)n2C)CC1 (stereo not given)	12	70*	99*	-0.9	-2	i	0.1	/	/	/
CC(C)c1nnc(NC(=O)CSc2ccccc2)s1	-3	-11	2	/	7	/	-1.4	/	/	/
Cc1cc(OC(=O)c2cccc(Br)c2)c([N+](=O)[O-])c(=O)[nH]1	-2	-5	-14	0.9	-4	i	6.5	0	9	-0.7
Cc1cc(C)nc(SCc2nnc(SCC(=O)Nc3ccc(Cl)c(C(F)(F)F)c3)o2)n1	-6	-12	0	/	-4	/	-2.4	/	/	/
CC(=O)c1cccc(NC(=O)CN(C2CCCCC2)S(C)(=O)=O)c1	2	9	0	/	3	/	-0.6	/	/	/
O=C(Oc1ccc(Br)cc1)c1cccnc1	-1	-20	1	-6.5	2	i	5.6	9	5	2.5
CCCCC(=O)Nc1ccc2c(c1)nc1n2CCOC1	-5	7	2	/	-5	/	1.9	/	/	/
O=C(Nc1ccc(Cl)cc1)N(CCCN1CCOCC1)Cc1cccs1	-9	-5	-7	-14	-5	i	-1.7	-13	-10	1.5
CC(Nc1ccc(F)cc1)=[N+](C)CCNS(=O)(=O)c1ccc(Cl)cc1	-4	11	4	-10.0	44	i	-3.3	2	5	-1.7
NS(=O)(=O)c1ccc(NS(=O)(=O)/C=C/c2ccccc2)cc1	-12	-3	5	/	1	/	2.6	/	/	/
O=C(O)C1CCCN1c1ncccn1 (stereo not given)	/	-1	-10	/	2	/	0.0	/	/	/
COc1ccc(S(=O)(=O)Nc2cccc(C)c2C)c2cccnc12	-13	-6	3	0.8	/	i	4.2	-1	-6	1.9
COc1cccc(CC2(CO)CCCN(Cc3sc(N4CCCC4)nc3Cl)C2)c1 (stereo not given)	-2	55*	-14	3.2	9	i	-3.7	1	-3	23
CC(Oc1ccc(F)cc1)C(=O)Nc1cc(S(=O)(=O)N2CCOCC2)ccc1N1CCCC1 (stereo not given)	1	9	-1	-1.9	2	i	-0.2	1	-9	0.2
Cc1ccc(-n2c(SCC(=O)N3CCC(C(=O)O)CC3)nc3ccccc3c2=O)cc1C	-2	-15	-4	0.9	-1	/	-0.9	-1	-7	0.6
CCOc1ccccc1NC(=O)CSc1nc2[nH]ncc2c(=O)[nH]1	/	-7	1	-3.1	-3	i	?	8	0	-0.2
C/C(=N\Nc1ccc(Cl)cc1)c1ccncc1	0	30	-11	14	99*	i	-0.7	-38	-63	-2.5
CCOC(=O)c1cnn(-c2ccccc2)c1-n1cccc1	0	5	-11	/	-2	/	0.6	/	/	/
COc1cccc(CNCCSc2nnnn2C)c1OC	-6	-13	19	-0.7	-4	i	-2.1	12	12	-4.7
Cc1cc(C)n2nc(C(=O)OCC(=O)c3cc(C)n(CC4CCCO4)c3C)nc2n1 (stereo not given)	-1	-6	10	-0.8	/	i	-0.2	12	14	-4.7
COc1ccc(N(CC(=O)Nc2ccc(S(=O)(=O)N3CCOCC3)cc2)S(=O)(=O)c2ccccc2)cc1	-1	/	-5	/	-1	/	0.2	/	/	/
S=C(Nc1ccc(Cl)cc1)NC1CCCCC1	4	-5	5	/	4	i	3.0	-23	-38	1.6
CC(C)(C)N(Cc1ccccc1)C(=O)COC(=O)Cn1cnc2ccccc2c1=O	6	-1	-25	-6.7	11	i	2.7	-32*	-16*	-13*
